RGS16-Gao: modulators of RGS16 binding to Galphao, primary screen, biochemical, human proteins, multiplexed bead flow cytometry. Regulator of G-protein signaling 16 (Homo sapiens) + Guanine nucleotide-binding protein …. bead-based flow cytometry RGS16-Galphao binding, fluorescence; actives lie on both sides. binding response (% of control), % at 10 µM. 220,000 compounds, 0.38% hits;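 active = below 25% or above 175%, edge rows of some plates excepted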;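 also: Galphao activated by GDP with aluminum fluoride before binding; 100% = wells without compound and 0% = beads without RGS; some results beyond the cut were filed as inactive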
Target sequence (O15492 whole entry, looked up): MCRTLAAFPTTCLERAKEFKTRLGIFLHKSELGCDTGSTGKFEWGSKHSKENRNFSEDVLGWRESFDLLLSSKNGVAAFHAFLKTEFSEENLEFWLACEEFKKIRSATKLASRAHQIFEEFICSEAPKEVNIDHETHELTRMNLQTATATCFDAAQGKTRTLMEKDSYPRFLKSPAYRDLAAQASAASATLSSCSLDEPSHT
Target sequence (P09471 whole entry, looked up): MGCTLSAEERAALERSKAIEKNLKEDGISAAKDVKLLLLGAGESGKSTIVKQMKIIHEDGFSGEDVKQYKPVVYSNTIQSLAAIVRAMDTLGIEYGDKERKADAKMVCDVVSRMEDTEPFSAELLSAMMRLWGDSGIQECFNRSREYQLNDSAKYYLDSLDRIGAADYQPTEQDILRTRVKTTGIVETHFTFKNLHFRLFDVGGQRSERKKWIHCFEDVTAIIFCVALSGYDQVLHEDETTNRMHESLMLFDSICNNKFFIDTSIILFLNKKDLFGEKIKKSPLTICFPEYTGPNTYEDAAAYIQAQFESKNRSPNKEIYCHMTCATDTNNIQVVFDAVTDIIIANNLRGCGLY
HSV replic up: enhancers of HSV replication in host cells, fold increase, host cell viability | HSV replication augmentation in cells | maximum fold increase | 220,000 compounds, 0.005% hits | AID 1956, 2009;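 active = peak rise of 1.5-fold or more in the series; tested in PC3 cells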;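 also: first round at 10 µM; read as green reporter fluorescence; hits show the peak of a series up to 25 µM; 1 = signal of infected wells without compound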
INS promoter inh: inhibitors of insulin promoter-driven GFP, primary screen, imaging, TRM-6 cells (human fetal islet line), eGFP reporter, cell count; 130,000 compounds, 0.9% hits; reporter expression induced with tamoxifen; AID 1273, 2008; inhibition, % at 2 µM;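 active = inhibition above the mean plus 3 SD, with well images judged a real hit on visual review, cut at about 60% in these data, passing the limit was not always enough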
PKD1 kinase inh: inhibitors of human PKD1 kinase, biochemical, fluorescence polarization; inhibition, %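 (about 10 µM by stock and volumes)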; 200,000 compounds, 0.056% hits; AID 797, 2007; PKD1 kinase fluorescence polarization assay; Serine/threonine-protein kinase D1 (Homo sapiens), Q15139;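 active = inhibition of 50% or more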;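 also: controls were vehicle for no effect and a reference inhibitor for full effect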
GALR2 agonist: GALR2 receptor agonists, primary screen, cell-based | Galanin receptor type 2 (Homo sapiens), O43603 | GALR2-expressing cells, agonist activation read-out | activation, %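 (tested at 5 µM)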 | 140,000 compounds, 0.48% hits | AID 803, 2007;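 active = above mean plus 3 SD of all compounds, about 5% in these data, not always enough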;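 also: 0% = vehicle buffer wells and 100% = reference agonist at full effect; tested in CHO reporter cells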
Target sequence (O43603 whole entry, looked up): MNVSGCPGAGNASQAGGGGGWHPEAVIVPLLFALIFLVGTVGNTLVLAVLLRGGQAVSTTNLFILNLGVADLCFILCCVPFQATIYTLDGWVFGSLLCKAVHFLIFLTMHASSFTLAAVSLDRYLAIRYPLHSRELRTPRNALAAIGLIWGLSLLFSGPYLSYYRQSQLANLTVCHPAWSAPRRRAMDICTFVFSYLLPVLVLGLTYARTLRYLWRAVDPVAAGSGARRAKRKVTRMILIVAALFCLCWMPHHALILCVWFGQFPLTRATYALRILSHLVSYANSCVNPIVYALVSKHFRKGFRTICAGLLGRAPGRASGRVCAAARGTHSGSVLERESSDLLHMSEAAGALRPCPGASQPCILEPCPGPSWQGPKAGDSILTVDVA
INS promoter inh cell count: also measured in INS promoter inh; calls as there; normalized cell count, %; measured here: cell count, toxicity; reference of the scale not given here;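 cells exposed to compound for 48 h; stained nuclei by imaging scaled within each plate; lower means fewer cells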
HSV replic up primary fold: second read-out of HSV replic up, no call of its own (marks repeat the call); fold increase; compound at 10 µM; measured here: primary screen fold increase 10 uM; tested in PC3 cells;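 GFP signal in the first replicate; 1 = infected wells without compound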
* = called active by the depositor.

Screening Cc1ccccc1-c1nc(CN2CCC(C(=O)NCCC3=CCCCC3)CC2)c(C)o1 returned RGS16-Gao 92, HSV replic up inactive, PKD1 kinase inh -3, GALR2 agonist -1.3 and HSV replic up primary fold 0.66.
For COc1ccc(NC(=O)CN2C(=O)N(C)Cc3ccccc32)c(C)c1 the results were RGS16-Gao 103, HSV replic up inactive, INS promoter inh 22, PKD1 kinase inh -7, INS promoter inh cell count 97 and HSV replic up primary fold 0.89.
Screening CCOC(=O)c1cc2c(C)n(-c3ccc(C)cc3)c(C)c2ccc1=O returned RGS16-Gao 102, HSV replic up inactive, INS promoter inh 34, PKD1 kinase inh 4, GALR2 agonist -1.0, INS promoter inh cell count 135 and HSV replic up primary fold 0.91.
`Cc1cc(NC(=O)C2CCCN2C(=O)Nc2c(C)cccc2C)ccc1-n1cnnn1` (stereo unspecified) gave RGS16-Gao 105, HSV replic up inactive, INS promoter inh 10, PKD1 kinase inh 1, GALR2 agonist -0.5, INS promoter inh cell count 122 and HSV replic up primary fold 0.92.
O=c1c2ccccc2cnn1-c1nc2ccccc2[nH]1 was read as RGS16-Gao 99, HSV replic up inactive, INS promoter inh -14, PKD1 kinase inh 1, INS promoter inh cell count 127 and HSV replic up primary fold 1.1.
Screening Cc1c(NC(=O)c2ccccc2NS(=O)(=O)c2ccc(Br)cc2)c(=O)n(-c2ccccc2)n1C returned RGS16-Gao 105, HSV replic up inactive, INS promoter inh -38, PKD1 kinase inh 2, GALR2 agonist 0.5, INS promoter inh cell count 135 and HSV replic up primary fold 0.79.
Screening Cc1cc(NC(=O)CSCc2ccccc2C)no1 returned RGS16-Gao 94, HSV replic up inactive, INS promoter inh 7, PKD1 kinase inh 0, INS promoter inh cell count 136 and HSV replic up primary fold 0.99.
`O=C(Cn1c(CO)nc2ccccc21)NCCc1ccc(F)cc1` gave RGS16-Gao 100, HSV replic up inactive, PKD1 kinase inh -7 and HSV replic up primary fold 0.99.
For C=CCNC(=O)c1sc(-c2ccccc2)nc1C the results were RGS16-Gao 97, HSV replic up inactive, PKD1 kinase inh -10 and HSV replic up primary fold 0.88.
COc1ccc(C(=O)NNc2cc(C)nc(NNC(=O)c3ccc(OC)cc3)n2)cc1 was read as RGS16-Gao 5, HSV replic up inactive, INS promoter inh 57, PKD1 kinase inh 0, INS promoter inh cell count 120 and HSV replic up primary fold 1.
Screening O=C(CCc1nnc(CCCc2ccccc2)o1)NCCCC1CCCC1 returned RGS16-Gao 71, HSV replic up inactive, PKD1 kinase inh -7 and HSV replic up primary fold 0.97.
O=C(CSc1nnc(Cc2ccccc2)o1)Nc1ccccc1 was read as RGS16-Gao 42, HSV replic up inactive, PKD1 kinase inh -2 and HSV replic up primary fold 0.99.
`O=C1C=C(Nc2cccc(O)c2)CC(c2ccco2)C1` (stereo unspecified) gave RGS16-Gao 106, HSV replic up inactive, INS promoter inh 67, PKD1 kinase inh -10, GALR2 agonist -1.7, INS promoter inh cell count 69 and HSV replic up primary fold 1.3.
For CCCc1cc(C(=O)Nc2sc3c(c2C(=O)OCC)CCCC3)no1 the results were RGS16-Gao 103, HSV replic up inactive, PKD1 kinase inh -14, GALR2 agonist -2.7 and HSV replic up primary fold 0.89.
For Cc1noc(C)c1S(=O)(=O)N(CC(=O)N1CCn2c1nc1ccccc12)c1ccc(C(C)C)cc1 the results were RGS16-Gao 98, HSV replic up inactive, PKD1 kinase inh 1, GALR2 agonist -2.2 and HSV replic up primary fold 1.1.
`O=C(NN=C1CCN(Cc2ccccc2)CC1)c1cccc(S(=O)(=O)Nc2ccccc2Cl)c1` gave RGS16-Gao 101, HSV replic up inactive, INS promoter inh 34, PKD1 kinase inh -8, GALR2 agonist 0.3, INS promoter inh cell count 164 and HSV replic up primary fold 0.91.
Screening N/C(=N\OC(=O)CCCc1ccccc1)c1cccnc1 returned RGS16-Gao 114, HSV replic up inactive, INS promoter inh 10, PKD1 kinase inh 0, GALR2 agonist -1.6, INS promoter inh cell count 102 and HSV replic up primary fold 0.93.
Screening COc1cc(CN2CCCC(C(=O)c3ccc4c5c(cccc35)CC4)C2)cc(OC)c1O (stereo unspecified) returned RGS16-Gao 94, HSV replic up inactive, PKD1 kinase inh 0 and HSV replic up primary fold 1.
Screening Cc1nnc(NC2=NCCC2)s1 returned RGS16-Gao 98, HSV replic up inactive, INS promoter inh -7, PKD1 kinase inh -14, GALR2 agonist -2.0, INS promoter inh cell count 88 and HSV replic up primary fold 1.1.
For COCC(=O)OCC(=O)Nc1cc([N+](=O)[O-])ccc1Cl the results were RGS16-Gao 103, HSV replic up inactive, INS promoter inh inactive, PKD1 kinase inh -3, INS promoter inh cell count 62 and HSV replic up primary fold 0.94.
Cn1c2ccccc2c2cc(C(=O)NNS(=O)(=O)c3ccc(F)cc3)sc21 was read as RGS16-Gao 100, HSV replic up inactive, INS promoter inh 12, PKD1 kinase inh -6, GALR2 agonist -2.2, INS promoter inh cell count 94 and HSV replic up primary fold 1.
Screening CCC(C)[C@H](N)c1cn([C@@H](Cc2ccc(O)cc2)C(=O)N2CCNCC2)nn1 (stereo partly specified) returned RGS16-Gao 101, HSV replic up inactive, PKD1 kinase inh 10 and HSV replic up primary fold 0.94.
Screening O=C(CCNC(=O)Cn1ccc2ccccc2c1=O)NCc1ccccn1 returned RGS16-Gao 110, HSV replic up inactive, PKD1 kinase inh 6 and HSV replic up primary fold 0.86.
Screening O=C1CCCN1CCCNC(=S)Nc1ccc(F)cc1 returned RGS16-Gao 100, HSV replic up inactive, PKD1 kinase inh 0 and HSV replic up primary fold 1.1.
Screening C#CCOC(=O)Nc1cnccc1C(F)(F)F returned RGS16-Gao 98, HSV replic up inactive and HSV replic up primary fold 1.1.
For C(=N\c1nc2ccccc2[nH]1)/c1cccs1 the results were RGS16-Gao 98, HSV replic up inactive, INS promoter inh 12, PKD1 kinase inh -11, GALR2 agonist -1.2, INS promoter inh cell count 109 and HSV replic up primary fold 0.92.
For COC(=O)c1[nH]c(C)c(/C(O)=C2\C(=O)C(=O)N(CCN(C)C)C2c2cccc(OC)c2OC)c1C (stereo unspecified) the results were RGS16-Gao 138, INS promoter inh -3, PKD1 kinase inh 1, GALR2 agonist -0.3 and INS promoter inh cell count 83.
O=C(CCn1c(=S)[nH]c2cc3c(cc2c1=O)OCO3)N1CCN(C2CCCCC2)CC1 was read as INS promoter inh 60, PKD1 kinase inh -8, GALR2 agonist -3.1 and INS promoter inh cell count 113.
For CCOc1ccc(C2C(C(=O)c3ccco3)=C(O)C(=O)N2CCN(C)C)cc1 (stereo unspecified) the results were RGS16-Gao 101, INS promoter inh 14, PKD1 kinase inh -5, GALR2 agonist -0.9 and INS promoter inh cell count 102.
For Cc1cc(C)cc(NC(=S)NCCN(C2CCCCC2)C2CCCC2)c1 the results were RGS16-Gao 104, HSV replic up inactive, PKD1 kinase inh -6 and HSV replic up primary fold 0.86.

Reprinted from the part before: 5 entries, followed by the next part.
For C(=N\c1nc2ccccc2[nH]1)/c1cccs1 the results were RGS16-Gao 98, HSV replic up inactive, INS promoter inh 12, PKD1 kinase inh -11, GALR2 agonist -1.2, INS promoter inh cell count 109 and HSV replic up primary fold 0.92.
For COC(=O)c1[nH]c(C)c(/C(O)=C2\C(=O)C(=O)N(CCN(C)C)C2c2cccc(OC)c2OC)c1C (stereo unspecified) the results were RGS16-Gao 138, INS promoter inh -3, PKD1 kinase inh 1, GALR2 agonist -0.3 and INS promoter inh cell count 83.
O=C(CCn1c(=S)[nH]c2cc3c(cc2c1=O)OCO3)N1CCN(C2CCCCC2)CC1 was read as INS promoter inh 60, PKD1 kinase inh -8, GALR2 agonist -3.1 and INS promoter inh cell count 113.
For CCOc1ccc(C2C(C(=O)c3ccco3)=C(O)C(=O)N2CCN(C)C)cc1 (stereo unspecified) the results were RGS16-Gao 101, INS promoter inh 14, PKD1 kinase inh -5, GALR2 agonist -0.9 and INS promoter inh cell count 102.
For Cc1cc(C)cc(NC(=S)NCCN(C2CCCCC2)C2CCCC2)c1 the results were RGS16-Gao 104, HSV replic up inactive, PKD1 kinase inh -6 and HSV replic up primary fold 0.86.
CSc1nc(-c2ccc(Cl)cc2)nc(N)c1C#N was read as RGS16-Gao 96, HSV replic up inactive and HSV replic up primary fold 0.81.
`CCCn1cnc2sc(CC)cc2c1=O` gave RGS16-Gao 104, HSV replic up inactive, INS promoter inh 38, PKD1 kinase inh 9, GALR2 agonist -1.4, INS promoter inh cell count 152 and HSV replic up primary fold 1.
`CCOC(=O)C1C(=O)CC(C)(O)C(C(=O)OCC)C1c1ccco1` (stereo unspecified) gave RGS16-Gao -574, HSV replic up inactive, PKD1 kinase inh -3, GALR2 agonist -1.4 and HSV replic up primary fold 1.1.
O=C1NCCN/C1=C\C(=O)c1ccc(Cl)cc1 was read as RGS16-Gao 97, HSV replic up inactive and HSV replic up primary fold 0.9.
Cc1c(N=C/C=C/c2ccccc2)c(=O)n(-c2ccccc2)n1C was read as RGS16-Gao 96, HSV replic up inactive, INS promoter inh 0, PKD1 kinase inh -1, GALR2 agonist -0.9, INS promoter inh cell count 114 and HSV replic up primary fold 0.94.
CC1CC(CC(=O)NC(=S)Nc2ccccc2Cl)C(=O)O1 (stereo unspecified) was read as RGS16-Gao 104, HSV replic up inactive, INS promoter inh 26, PKD1 kinase inh 1, INS promoter inh cell count 70 and HSV replic up primary fold 1.1.
Screening Cc1cccc(CCNC(=O)CN(C)S(=O)(=O)c2cnc[nH]2)c1 returned RGS16-Gao 109, HSV replic up inactive, INS promoter inh 7, PKD1 kinase inh -3, GALR2 agonist -0.3, INS promoter inh cell count 100 and HSV replic up primary fold 0.97.
CCC(CC)C(=O)N1CCN(c2ccccc2)CC1 was read as RGS16-Gao 105, HSV replic up inactive, PKD1 kinase inh -8 and HSV replic up primary fold 0.82.
Screening COc1ccc(C2CC(c3ccc(C)o3)=NN2C(C)=O)cc1 (stereo unspecified) returned RGS16-Gao 98, HSV replic up inactive, INS promoter inh 47, PKD1 kinase inh 19, GALR2 agonist -1.1, INS promoter inh cell count 53 and HSV replic up primary fold 1.1.
For COc1ccc(-c2nn(CC(=O)Nc3ccc(Cl)c(Cl)c3)c(=O)c3ccccc23)cc1 the results were RGS16-Gao 90, HSV replic up inactive, INS promoter inh 21, PKD1 kinase inh -12, GALR2 agonist -0.4, INS promoter inh cell count 53 and HSV replic up primary fold 0.84.
Screening CCc1ccccc1N1C[C@@]23C=C[C@@H](O2)C(C(=O)OCC(C)C)[C@H]3C1=O (stereo partly specified) returned RGS16-Gao 97, HSV replic up inactive, PKD1 kinase inh 2, GALR2 agonist -1.1 and HSV replic up primary fold 0.96.
For COC(=O)c1cnc(Nc2ccc(Cl)cc2)c([N+](=O)[O-])c1 the results were RGS16-Gao 109, HSV replic up inactive and HSV replic up primary fold 0.95.
`CCN(CC)S(=O)(=O)c1ccc2oc(SCc3ccc(F)cc3)nc2c1` gave RGS16-Gao 92, HSV replic up inactive, INS promoter inh -11, PKD1 kinase inh -5, GALR2 agonist -0.5, INS promoter inh cell count 106 and HSV replic up primary fold 0.93.
O=C(CC(=O)Nc1cccc(Cl)c1)N/N=C\c1ccccc1 was read as RGS16-Gao 64, HSV replic up inactive, INS promoter inh -17, PKD1 kinase inh 8, GALR2 agonist -0.8, INS promoter inh cell count 86 and HSV replic up primary fold 0.98.
For Cc1oc(-c2ccccc2F)nc1CS(=O)(=O)CC(=O)NCc1ccco1 the results were RGS16-Gao 100, PKD1 kinase inh -1 and GALR2 agonist -0.4.
O=C(O)c1ccccc1C(=O)Nc1ccc(Oc2ccc3ccccc3c2)cc1 was read as RGS16-Gao 102, HSV replic up inactive, PKD1 kinase inh 6 and HSV replic up primary fold 0.97.
`COc1ccc(NS(=O)(=O)c2ccc(N3CCCC3)c(NC(=S)Nc3cccc(S(=O)(=O)N(C)C)c3)c2)cc1` gave RGS16-Gao 79, HSV replic up inactive, INS promoter inh -8, PKD1 kinase inh -2, GALR2 agonist -0.2, INS promoter inh cell count 54 and HSV replic up primary fold 0.97.
Screening Cc1cc(C(=O)NCc2ccc3c(c2)OCO3)n(-c2ccccc2)n1 returned RGS16-Gao 106, HSV replic up inactive, PKD1 kinase inh -7, GALR2 agonist -2.1 and HSV replic up primary fold 0.96.
For O=C(CNS(=O)(=O)c1ccccc1)OCc1cccc([N+](=O)[O-])c1 the results were RGS16-Gao 30, HSV replic up inactive, INS promoter inh -10, PKD1 kinase inh -3, GALR2 agonist -1.3, INS promoter inh cell count 93 and HSV replic up primary fold 1.1.

Bioassay records: PubChem BioAssay, several laboratories
